TRPV1 PAM – enhances activation of the human vanilloid receptor TRPV1; AID 540277; potentiation, % at 8.33 µM; TRPV1-expressing cells, Fluo-8 calcium influx, capsaicin EC20 potentiation; host cell line not named in the record; control for the full effect not named in the record; Q8NER1; 320,000 compounds, 0.02% hits; active means potentiation above 80%; inconclusive means 30% to 80%; inactive means below 30%; also: 0% is about no effect
Target sequence (Q8NER1 whole entry, looked up): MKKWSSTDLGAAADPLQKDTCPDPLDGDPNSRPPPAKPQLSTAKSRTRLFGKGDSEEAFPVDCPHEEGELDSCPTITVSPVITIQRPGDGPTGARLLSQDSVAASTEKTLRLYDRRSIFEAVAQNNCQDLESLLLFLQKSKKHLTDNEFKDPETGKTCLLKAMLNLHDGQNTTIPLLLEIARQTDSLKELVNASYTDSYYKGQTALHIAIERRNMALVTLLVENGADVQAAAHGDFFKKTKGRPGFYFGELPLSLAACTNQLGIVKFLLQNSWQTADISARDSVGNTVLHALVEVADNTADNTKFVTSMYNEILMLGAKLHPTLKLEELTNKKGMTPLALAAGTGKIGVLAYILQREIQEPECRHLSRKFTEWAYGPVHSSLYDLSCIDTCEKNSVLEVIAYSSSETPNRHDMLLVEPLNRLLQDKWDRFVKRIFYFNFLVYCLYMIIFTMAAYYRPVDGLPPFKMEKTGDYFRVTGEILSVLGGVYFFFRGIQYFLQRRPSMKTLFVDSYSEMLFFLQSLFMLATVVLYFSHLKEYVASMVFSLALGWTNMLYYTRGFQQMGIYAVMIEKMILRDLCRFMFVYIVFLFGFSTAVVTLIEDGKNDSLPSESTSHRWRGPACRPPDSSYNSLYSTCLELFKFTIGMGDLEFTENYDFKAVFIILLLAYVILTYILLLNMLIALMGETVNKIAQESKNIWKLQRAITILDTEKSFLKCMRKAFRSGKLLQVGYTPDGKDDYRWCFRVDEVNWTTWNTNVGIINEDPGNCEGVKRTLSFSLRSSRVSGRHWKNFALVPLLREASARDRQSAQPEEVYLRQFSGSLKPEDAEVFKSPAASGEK
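TRPV1-expressing cells were cultured overnight at 35.5C and loaded with Fluo-8 calcium dye for 40 to 90 min at room temperature. After a 10 s baseline, compound was added and calcium influx was read kinetically for 3 min (ex 480/em 520 nm).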
Sfp PPTase inh – Sfp phosphopantetheinyl transferase inhibition; Q9F4F7; Biochemical Sfp PPTase activity, qHTS; Potency, µM, for the others: max response, negative = inhibition, actives largely listed as inhibitors; 310,000 compounds, 3.5% hits; AID 1490; active = well fitted inhibition curve with a large enough effect; inconclusive = small, poorly fitted or top-dose-only effect, or another doubt; inactive = no such curve, though single readings can be large or run the other way;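 also: the enzyme is Sfp with the accession as filed and its product quenches rhodamine fluorescence; potency is read from the fitted curve at half-maximal effect; 0% = enzyme reaction without inhibitor and -100% = no enzyme wells; top concentration of the series not given in the record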
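After 15 min at room temperature with compound, 15 nM Sfp received 5 uM rhodamine-CoA plus 12.5 uM BHQ-2-ybbR (50 mM Hepes pH 7.6, 10 mM MgCl2). Rate came from the fluorescence difference over 30 min, ex 525/em 598 nm.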
PINK1 expr mod – PINK1 expression modulation | PINK1 immunofluorescence, high-content cytometry, 24 h | Potency, µM (highest dose often 76.6 µM), for inactives: at the top dose activation (PINK1 increase), hits mostly activators | 410,000 compounds, 0.2% hits | AID 624263; active = well fitted activation curve with a large enough effect; inconclusive = small, poorly fitted or top-dose-only effect; inactive = flat fitted curve, though single readings scatter; cell line not stated here;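 also: potency is read from the fitted curve at half-maximal effect; % of control where 0% means no effect; nearly all actives have a fitted effect of over 65% in size; a mitochondrial uncoupler was the plate control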
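Stable cell line, 250 cells/well, 12 h attachment; compounds pinned at 5 concentrations, 24 h; CCCP control. Fixed with nuclear dye, primary antibodies 12 h at 10 degrees C, secondary plus cell stain; laser-scanning cytometer read.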
ClpP mod – qHTS Assay for Activators of ClpP. purified B. subtilis ClpP, FRET peptide cleavage, 20 min. ATP-dependent Clp protease proteolytic subunit (Bacillus subtilis (strain 168)), P80244. Potency, µM (highest dose often 57.5 µM), for inactives: top-dose activity change, negative = active. 340,000 compounds, 1.9% hits; active = well fitted falling curve with a large enough effect; inconclusive = small, poorly fitted or top-dose-only effect; inactive = no such curve, though single readings can be large or run the other way; also: potency is read from the fitted curve at half-maximal effect; the source files actives as falling curves though it sought activators and does not explain the sign; nearly all actives have a fitted effect of over 65% in size; many hits overshoot -100%
Target sequence (P80244 whole entry, looked up): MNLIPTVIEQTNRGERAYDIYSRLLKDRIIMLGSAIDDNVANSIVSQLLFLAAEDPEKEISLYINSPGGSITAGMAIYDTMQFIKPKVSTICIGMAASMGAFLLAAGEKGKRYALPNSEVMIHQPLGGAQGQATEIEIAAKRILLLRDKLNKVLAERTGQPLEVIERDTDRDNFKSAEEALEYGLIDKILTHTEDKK
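FRET quenching reversal measured ClpP activation: 10 microg/mL B. subtilis ClpP at pH 8 with the FRET-FV decapeptide, read at 430 nm after 320 nm excitation. The 20-min minus 0-min signal was scaled between DMSO/no-enzyme wells and ADEP (5.8 microM final).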
Menin MLL FP FL – displaces fluorescein MLL peptide from human menin | Fluorescence polarization, fluorescein-MLL peptide displacement from menin | FP activity change, % at 61.4 µM | AID 1766 | 290,000 tested, under 10 active; inconclusive = falling polarisation curve, or a change in total fluorescence; inactive = total fluorescence flat and polarisation flat or rising; no compound was filed as active; the % refers to the polarisation; negative = inhibition;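 also: % of control where 0% means no effect; inhibitors lower the polarisation; unlabelled MLL peptide was the positive control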
TRPML1 ag – agonists of human TRPML1 channel; Q9GZU1; TRPML1-expressing cells, Ca2+ dye fluorescence, FDSS; host cell line not named in the record; reference of the full effect not given here; activation, % (test concentration not listed); 410,000 compounds, 0.12% hits; in the data active = activation above about 50%; inconclusive = about 30% to 50%; inactive = below about 30%; also: 0% is about no effect; the text of the record puts the active cut at 80%
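Tet-induced TRPML1-DL cells, 1,500 per well, cultured overnight, were loaded with a no-wash Ca2+ dye for 45–90 min. Calcium fluorescence was recorded on the FDSS for 110 s after compound addition, before the EC80 agonist (4 uM 54-4) was added.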
TRPML1 inh – inhibitors of human TRPML1 channel. TRPML1-inducible cells, Ca2+ dye fluorescence, FDSS; active compounds read low; inhibition of EC80 agonist-evoked calcium signal. 390,000 compounds, 0.02% hits. AID 624415. activity change, negative = inhibition, % (concentration not given with the values). Q9GZU1; in the data active means activity change below about -50%; inconclusive means about -30% to -50%; inactive means above about -30%;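 also: stimulus is agonist 54-4 at its EC80 concentration; % is scaled to controls: 0 for no effect and ±100 for the full control effect; the text of the record puts the active cut at -80%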
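Tet-induced TRPML1-DL cells loaded with Ca8 no-wash calcium dye were read kinetically on FDSS. Compound addition was followed by EC80 agonist 54-4 (4 uM final); inhibition was read over 110 s.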
* hit, by the source's call; u = inconclusive; x = no result given; & = joins results of further samples; [ ] = dose if it differs, or a comment. Compounds as they come; 4.4% or so of the library scored in one or more.

SMILES	TRPV1 PAM	Sfp PPTase inh	PINK1 expr mod	ClpP mod	Menin MLL FP FL	TRPML1 ag	TRPML1 inh
Cc1ccc2nc(-c3ccccc3)cc(C(=O)NNC(=O)c3csc(N4CCOCC4)n3)c2c1	22	x	-0.5%	-30%	x	-0.4	9
CC(SCc1ccc(C(=O)O)o1)c1ccc(C(=O)O)o1 (centres undefined)	-20	3%	0.6%	-2.6%	-6.5	1.3	-7
CCOC(=O)C(CC)(CCC(=O)OC)c1csc(Nc2ccccc2O)n1 (centres undefined)	-6	-16%	x	x	5.5	x	x
O=C(NC(CC(=O)N1CCN(c2ccccc2O)CC1)c1ccccc1)c1ccccc1Cl (centres undefined)	5	x	0.7%	-8.5%	x	-0.2	1
Cc1ccc(-n2nc3c(c2NC(=O)C(C)C)CS(=O)(=O)C3)cc1	18	14%	1.8%	-0.3%	7.4	0.8	1
COc1cccc(CC(NC(C)=O)C(=O)NC2CCN(c3nc(C)cc(C)c3C#N)CC2)c1OC (centres undefined)	x	12%	0.6%	28µM*	4.4	0.1	-6
Cc1ccc(CSc2cn(CC(=O)N3CCCCCC3)c3ccccc23)cc1	x	x	1.5%	-0.8%	x	-0.1	13
Cc1cc(Cl)ccc1NC(=O)CCCN1C(=O)CCC1=O	8	7%	5.1%[38.3 µM]	-0.9%	-0.9	0.5	-5
CC[C@]12c3[nH]c4ccc(OC)cc4c3CCN1C(=O)C(CC(=O)NC(C)(C)C)C[C@@H]2C(=O)N1CCN(C(=O)c2ccco2)CC1 (some centres undefined)	x	x	1.0%	-0.5%	x	-0.5	-3
CCOC(=O)N1CCC(=NNC(N)=O)C1	x	x	0.0%	0.3%	x	-0.3	3
O=C(C1CC1)N1CCc2sccc2C1c1ccc(Cl)cc1 (centres undefined)	-25	13%	-0.6%	x	2.5	0.6	-15
Cc1cc(Cl)c2oc(C(=O)N3CCCCC3CCN3CCCC3=O)c(C)c2c1 (centres undefined)	9	0%	1.3%	-4.1%	x	1.1	5
COCCNC(=O)c1cccc(OC2CCN(Cc3cccc(C(C)=O)c3)CC2)c1	u	26%	-0.3%	0.5%	3.6	-0.2	1
CCOC(=O)c1c(NC(=O)/C(C#N)=C/c2ccccc2)sc2c1CCC2	x	x	6.5%	-7.3%	x	-0.2	0
O=C(O)Cc1csc(Nc2cccc(Cl)c2)n1	-6	6%	6.5%	1.7%	2.6	1.5	4
O=C(CN1CCCc2ccccc21)N/N=C/c1ccc(F)cc1F	-6	6%	6.2%	x	7.4	-0.3	-6
COc1cccc(OCc2nnc(SC)n2C)c1	-4	8%	-1.9%[38.3 µM]	0.3%	4.1	-0.4	18
CC1CN(C(=O)c2cccc(S(=O)(=O)N3CCOCC3)c2)CC(C)O1 (centres undefined)	15	-5%	x	-1.2%	2.1	-0.3	-4
Cc1ccc(NC(=O)Cn2c(O)c(N=NS(=O)(=O)c3ccc(C)cc3)c3ccccc32)cc1	-1	-4%	1.3%	-6.7%	-2.1	0.4	8
Cc1ccc(S(=O)(=O)N2CCN(c3ncnc4ccccc34)CC2)cc1	3	x	1.4%&1.4%	-1.6%&-4.8%	x	-1.1&-0.6	-15

Whole records as entered above. Values in the order: TRPV1 PAM	Sfp PPTase inh	PINK1 expr mod	ClpP mod	Menin MLL FP FL	TRPML1 ag	TRPML1 inh
CCOC(=O)c1c(NC(=O)/C(C#N)=C/c2ccccc2)sc2c1CCC2 as listed: x	x	6.5%	-7.3%	x	-0.2	0
Cc1ccc(-n2nc3c(c2NC(=O)C(C)C)CS(=O)(=O)C3)cc1 as listed: 18	14%	1.8%	-0.3%	7.4	0.8	1

Next section.
SMILES	TRPV1 PAM	Sfp PPTase inh	PINK1 expr mod	ClpP mod	Menin MLL FP FL	TRPML1 ag	TRPML1 inh
CCN(CC)CCOC(=O)c1ccc(NC(=O)c2nn(C)c3c2COc2ccccc2-3)cc1	x	x	1.4%	-8.9%	x	0.5	-15
C=C1CCN([C@H](C(=O)O)C(C)C)S(=O)(=O)c2ccccc21	x	x	0.4%	0.1%	x	-0.4	0
N#CCCCSc1nnnn1-c1cccc(Cl)c1	-7	9%	-1.7%	0.4%	2.9	2.4	3
Cc1ccc(CN2CCN(Cc3c[nH]c4ccccc34)CC2CCO)o1 (centres undefined)	8	2%	-0.3%	x	0.9	0.3	3
CCNC(=O)c1sc(=S)n(CC)c1N	0	50µM*	-0.3%	98%	1.5	-0.9	-7
CCC(CO)Oc1cc(NC(=O)c2cccc(C)c2)c2ncn(C(C)C)c2c1 (centres undefined)	x	x	1.0%	-3.8%	x	-0.1	12
CC(NC(=O)c1ccccc1OC(F)F)c1ccc(-n2ccnc2)cc1 (centres undefined)	-10	9%	0.8%	0.9%	x	-0.5	4
COc1ccccc1N1CCN(C(=O)c2cc3cc(C)ccc3[nH]2)CC1	-19	3%	-1.7%	-0.3%	1.9	1.4	-7
CCOC(=O)C1CCN(S(=O)(=O)Cc2ccc(Cl)cc2)CC1	7	-6%	0.1%[38.3 µM]	-5.4%	-1.4	-0.3	-13
CCC1C(=O)N=C(SCC(=O)Nc2nc3ccccc3s2)NC1=O (centres undefined)	-7	6%	-0.6%	x	-0.9	0.5	28
CCCc1cc(C(=O)Nc2nnc(C)s2)cs1	-12	5%	11%[38.3 µM]	-0.2%	3.9	0.4	13
Cc1cccc(N2CCN(C(=O)C3CCN(S(=O)(=O)c4c(C)noc4C)CC3)CC2C)c1 (centres undefined)	u	-1%	-0.2%&1.3%	-2.3%	1.7	0.1&-1.3	1&12
CC(=NNC(=O)c1ccc(NS(=O)(=O)c2ccc(Br)cc2)cc1)c1cccnc1	x	x	-1.3%	1.7%	x	-0.5	6
Cc1nn(C)c(Sc2ccccc2N)c1[N+](=O)[O-]	-24	3.5µM*	1.3%	-0.1%	0.8	0.3	-17
CCN(CC)C(=O)Cn1ccc(NC(C)=O)nc1=O	-4	7%	0.6%	-1.5%	4.2	0.1	5
Cc1nnc(SCC(=O)Nc2cccc(Cl)c2)n1CC1CCCO1 (centres undefined)	0	1%	3.0%	x	0.4	-0.5	15
Cc1ccc(-n2c(=O)c3sc4ccccc4c3n(CC(=O)NC3CCCC3)c2=O)cc1C	x	x	10%	4.4%	x	0.9	-1
Nc1c(N=Nc2ccccc2F)c(=O)[nH]n1-c1ccccc1	x	-1%	1.5%	2.5%	-0.4	0.7	-6
O=S1(=O)CCN(c2ccccc2CC(c2c[nH]c3ccccc23)c2c[nH]c3ccccc23)CC1	x	x	-0.8%	3.2%	x	0.3	-7
CC(=O)Nc1ccc(S(=O)(=O)N2CCC(C(=O)NC3CC3)CC2)cc1	-6	12%	-1.5%	-0.6%	x	-0.3	-5
CC(C)N(Cc1nccn1C)C(=O)CCc1nnc(CCCc2ccccc2)o1	1	-10%	-1.4%	1.5%	2.6	0.2	14
CC(=O)c1ccc(S(=O)(=O)Nc2cccc(-c3ccc4nncn4n3)c2)cc1	-7	13%	0.0%	x	-2.0	-0.4	25
C#CCNC(=O)C[C@@H]1C[C@@]2(C(=O)OCC)CCCC=C2N(Cc2cccc3ccccc23)C1=O	x	x	1.2%	1.3%	x	-0.2	x
CC(=NCCN1CCOCC1)C1=C(O)c2ccccc2C1=O	-5	1%	-0.6%	2.4%	0.3	-0.4	1
CCS(=O)(=O)N1CC(=O)N(c2cccc(C)c2C)C(C)(C(=O)NC2CCCCCC2)C1 (centres undefined)	x	x	-1.5%	1.0%	x	0.6	33
Cc1ccc(C(=O)Nc2ccc(N3CCN(C)CC3)nc2)cc1	-20	-10%	1.2%	x	9.4	0.4	-5
CC1CCc2c(sc3ncnc(NCCCOC(C)C)c23)C1 (centres undefined)	-15	-1%	1.2%	-7.7%	4.8	2.3	5
Oc1ccc(N2CCN(c3nc(-c4cccs4)nc4ccccc34)CC2)cc1	-13	u	0.4%	x	-0.1	1.3	5
COc1cccc(CNC(=O)CCC2CCCN(C/C=C/c3ccccc3OC)C2)c1 (centres undefined)	-4	9%	0.2%	-1.3%	1.5	-0.2	2
Cc1ccccc1NC(=O)NNC(=O)OC(C)(C)C	2	11%	-0.6%	x	0.3	1.5	39
CCCCN1C(=O)Nc2ccccc2S1=O (centres undefined)	-3	1%	-1.1%	-1.9%	-5.2	0.5	-2
CC(C)CCNc1c(-c2cccs2)nc2ccccn12	-7	-4%	1.4%	x	0.0	0.4	2
CCN(c1ccc(NC(=O)COC(=O)CCC(=O)c2ccc(F)cc2)cc1)C(C)C	-14	-10%	0.2%	-0.7%	-1.1	-0.5	4
Cc1ccccc1C(=O)NC1CCN(CC(=O)Nc2ccc(Br)cc2)CC1	1	22%	-0.9%	x	-5.7	-0.8	21
O=C(Oc1cc2oc(=O)c3c(c2cc1Cl)CCCC3)c1cccs1	-1	-21%	0.1%	-30%	0.7	0.7	0
O=C(CCNS(=O)(=O)c1ccc2[nH]c(=O)oc2c1)Nc1ccccc1	15	3%	0.1%	-3.3%	x	-0.5	1
CC(C)N(CCCNC(=O)Cn1c(=O)c2cccn2c2ccc(F)cc21)Cc1ccccc1	4	-2%	5.3%	-11%	-2.8	-0.3	13
COC(=O)c1ccc(OS(=O)(=O)c2ccc(NC(C)=O)cc2)cc1	-1	-3%	1.5%	-0.7%	-2.0	0.6	-7
CN(C)S(=O)(=O)c1ccc2c(c1)nc(CCC(=O)NCC(=O)Nc1ccc(F)c(F)c1F)n2C	x	x	1.5%	2.7%	x	-0.7	-6
Cc1ccc(NC2CCCN(C(=O)c3cc(C(C)C)nn3C)C2)cc1C (centres undefined)	x	x	-0.3%	-4.9%	x	-0.6	29
Cc1cc(Cl)c(S(=O)(=O)Nc2ccccn2)cc1OCC(N)=O	6	15%	13%	-26%	-4.4	0.6	-20
O=C(Nc1cccc(O)c1)c1cc(-c2ccccc2Cl)on1	-7	-2%	0.9%	-1.6%	4.7	3.0	1
CCOC(=O)N1CCC(NC(=O)CCC(=O)N2CCOc3ccc(Cl)cc32)CC1	-16	3%	-1.0%	x	2.3	-1.0	-3
CCOC(=O)N(NC(=O)C(O)(CC(C)C)CC(C)C)c1ccccc1	-2	2%	1.0%	x	2.4	2.7	39
COc1ccc(OC)c(S(=O)(=O)NCCc2csc(-c3cccc(F)c3)n2)c1	x	x	0.6%	-7.0%	x	0.9	20
CSCc1c(C(=O)OCC(=O)NC2CCCCC2)oc2ccccc12	-2	x	4.5%	-1.7%	x	1.1	-1

Screening results (PubChem BioAssay)
